Bioassay records as filed in PubChem.
PMP22 txn prim: modulates PMP22 transcription in S16 Schwann cells; hit rate 2% among 43,000; Potency, µM (top dose mostly 57.5 µM), for the others: at the highest dose activity change, negative = inhibition, usual class: inhibitors; S16 Pmp22-F2sN Schwann cells (luciferase reporters placed in the Pmp22 gene), FLuc/NLuc coincidence luminescence, 24 h; active = clear falling dose curves in both reporters; inconclusive = both reporters move, but less clearly or upward; inactive = either reporter flat; the % is the NLuc reporter signal; further: on the % scale 0 is the no-effect control and ±100 the full control effect; some results filed as inactive show a strong effect at the top dose
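Schwann cells carrying the coincidence reporter were exposed to library compounds for 24 h at 37C, then lysed and read for FLuc and, after quenching, NLuc luminescence on a CCD imager.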
HTT prom inh: HTT promoter inhibition; HEK293 HTT promoter firefly luciferase reporter (activity 0% = vehicle and -100% = no light), 24 h; Potency, µM (highest dose often 57.5 µM), for the others: at the top dose activity change, negative = inhibition, hits mostly inhibitors; hit rate 0.93% among 48,000; AID 1508623; active means well fitted inhibition curve with a large enough effect; inconclusive means small, poorly fitted or top-dose-only effect; inactive means no such curve, though single readings can be large or run the other way; further: nearly all actives have a fitted effect of over 50% in size
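HEK293 luciferase promoter-reporter cells (2,500/well) plated 24 h, then compounds added at up to 57.5 uM final for 24 h at 37 °C. Firefly luminescence by Dual-Glo, normalized to vehicle (0%) and zero RLU (-100%).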
Starred values were filed as active, the others as inactive; ? = inconclusive; . = not tested or not shown; [ ] = dose if it differs, or a comment. Potency means the concentration at half of the fitted maximal effect.

molecule	PMP22 txn prim	HTT prom inh
Cc1cc(C)c(NC(=O)Cn2c(=O)n(CCC(=O)NCc3ccc4c(c3)OCO4)c(=O)c3ccccc32)c(C)c1	-18.6%	-16.5%
COc1ccccc1N1CCN(C(=O)CCSCc2ccccc2F)CC1	?	22.3%
CCCCOc1ccc(C2=NC(c3ccncc3)=Nc3ccc(Br)cc3N2)cc1	-3.3%	-18.3%
COc1ccc(N(C(=O)c2ccccc2)S(=O)(=O)c2ccc3c(c2)n(C)c(=O)n3C)cc1	-3.4%	-7.0%
Cc1ccc(CN(C(=O)c2ccc([N+](=O)[O-])cc2)c2ccccn2)cc1	-5.1%	-1.0%
COc1cccc(C(=O)c2cn(CC(=O)Nc3ccc4c(c3)OCCO4)c3nc(C)ccc3c2=O)c1	2.5%	-14.3%
CCc1ccc(NC(=O)CSc2nc3ccccc3nc2Cc2ccccc2OC)cc1	?	-0.6%
COc1cc2c(=O)n(CCC(=O)NCC3CCCO3)c(=O)n(CC(=O)Nc3ccc(C)c(C)c3)c2cc1OC (centres undefined)	16.9%	-22.2%
Cc1cc(C)cc(NC(=O)CSc2nc(-c3ccccc3)c3cc(F)ccc3n2)c1	-32.1%	-6.8%
CCc1ccccc1NC(=O)Cn1nnc(-c2nc(-c3ccc(C)cc3)no2)c1N	-9.8%	5.8%
COc1ccc(C(=O)Nc2ccc3c(c2)N(C)C(=O)c2ccccc2S3)cc1OC	?	?
CCOc1ccc(Nc2oc(-c3ccc(COc4ccc(OC)cc4)o3)nc2C#N)cc1	?	22.4%

Gathered by group: the compounds so far containing a halogen.
molecule	PMP22 txn prim	HTT prom inh
COc1ccccc1N1CCN(C(=O)CCSCc2ccccc2F)CC1	?	22.3%
CCCCOc1ccc(C2=NC(c3ccncc3)=Nc3ccc(Br)cc3N2)cc1	-3.3%	-18.3%
Cc1cc(C)cc(NC(=O)CSc2nc(-c3ccccc3)c3cc(F)ccc3n2)c1	-32.1%	-6.8%

(next part)
molecule	PMP22 txn prim	HTT prom inh
Cc1nn(C)c2c1c(-c1ccccc1)cc(=O)n2Cc1ccc(Cl)cc1	-19.7%	0.0%
CCOC(=O)c1c(C)[nH]c(CCC(=O)Nc2cc(Cl)ccc2OC)c1C	-29.0%	-29.8%
COc1cc(NS(=O)(=O)c2cc3[nH]c(=O)[nH]c3cc2C)cc(OC)c1OC	-7.1%	5.8%
CSc1nc2sc3c(c2c(=O)n1-c1ccccc1C)CCCC3	-10.9%	?
COc1ccc(CNC(=O)c2ccc3c(c2)N(Cc2ccccc2F)C(=O)c2ccccc2S3=O)cc1 (centres undefined)	?	-8.6%
CC(C)Cn1c(=O)c2ccccc2n2c(CCC(=O)N3CCN(c4ccccc4)CC3)nnc12	-4.9%	3.6%
C#CC1(O)CC[C@H]2[C@@H]3CCC4=CCCC[C@@H]4[C@H]3CC[C@@]21C (some centres undefined)	.	-4.9%
COc1cc(NC(=O)CCn2nc(C)c(S(=O)(=O)N3CCCCC3)c2C)cc(OC)c1OC	?	-23.6%
Cc1oc(-c2ccccc2Cl)nc1CSc1nncn2c1cc1occc12	-3.4%	9.4%
O=C(NC1CCCC1)c1ccc(CSc2nc3cccnc3n2Cc2ccc(F)cc2)cc1	-30.8%	-3.2%
O=C(C1CCCN(S(=O)(=O)c2ccc(Br)s2)C1)N1CCN(c2ccccc2)CC1 (centres undefined)	?	?
CCCN1CCCc2cc(CN(CCCN3CCOCC3)C(=O)Nc3ccc(CC)cc3)ccc21	3.2%	-16.2%
Cn1c(=O)c2c(nc(NCCc3ccccc3)n2Cc2ccccc2Br)n(C)c1=O	-8.5%	-5.9%
Cn1c(=O)c2cc(S(=O)(=O)NC(Cc3ccccc3)C(=O)Nc3ccc(F)cc3)ccc2n(C)c1=O (centres undefined)	?	-13.2%
Cc1c(C(=O)NCc2ccc(F)cc2)oc2ccc(S(=O)(=O)N3CCCCC3)cc12	?	?
Cc1ccc(CNC(=O)CN2C(=O)CCc3cc(S(=O)(=O)N4CCCCC4)ccc32)cc1	-8.8%	-3.7%
COc1ccc(Br)cc1CNC(=O)c1ccc2nc(C(C)C)oc2c1	-28.0%	-23.7%
CC(=O)c1sc(NC(=O)c2c(-c3ccccc3)c(-c3ccccc3)nn(C)c2=O)nc1C	17.3%	3.3%
COc1ccc(/C=C/C(=O)Nc2sc3c(c2C(N)=O)CCCC3)cc1	-4.2%	20.8%
CCCNC(=O)CCSc1nc(-c2ccc3c(c2)OCO3)cc(C(F)(F)F)n1	?	-8.9%
COc1ccc2[nH]cc(CCNC(=O)Nc3ccccc3C)c2c1	-38.8%	-11.9%
CCCCc1nc2cc(C=CC(=O)NO)ccc2n1CCN(CC)CC	.	199.3%[activator]
O=C(Nc1nnc(S(=O)(=O)N2CCCCCC2)s1)c1ccc(Cl)cc1	?	-20.2%
CCCCOc1ccc(NC(=O)Cn2nnnc2-c2ccccc2F)cc1	-5.4%	-5.4%
Cc1cccc(OCC(=O)N2CCC(c3nc4ccccc4o3)CC2)c1C	20.0%	-8.7%
COc1cc(CNC(=O)CSCc2nc3cccnc3n2C2CCCCC2)cc(OC)c1OC	-23.0%	-0.8%
CCc1ccc(NC(=O)CCNS(=O)(=O)c2ccc3c(c2)oc(=O)n3C)cc1	-1.5%	66.0%[activator]
CN(C)CCNC(=O)Cc1ccc(NC(=O)N2CCCCc3ccccc32)cc1	?	-6.0%
O=C(c1ccc2c(c1)N(Cc1c(F)cccc1Cl)C(=O)c1ccccc1S2)N1CCCC1	?	-23.8%
Cc1ccc(C(=O)NCC(c2ccc3c(c2)OCO3)N2CCN(C)CC2)cc1C (centres undefined)	-14.5%	-13.4%
CCOc1ccc(OCC)c(NC(=O)c2cc(S(=O)(=O)N3CCc4ccccc43)cn2C)c1	-4.0%	-14.6%
CC(=O)N1c2c(cc(Br)cc2S(=O)(=O)N2CCN(c3cc(C)ccc3C)CC2)CC1C (centres undefined)	?	-11.7%
Cc1nn(-c2cccc(Cl)c2)c2nc(-c3cccnc3)cc(C(F)(F)F)c12	11.2%	-9.1%
Cc1ccc(-n2c(C)cc(/C=C(\C#N)C(=O)Nc3ccc(C)c(C)c3)c2C)cc1	-10.3%	-5.9%
Cc1nc2cccnc2n1C1CCN(S(=O)(=O)c2ccc(C(C)C)cc2)CC1	17µM*	?
CCC(Oc1ccccc1)C(=O)Nc1cc(-c2ccccc2OC)nn1-c1ccccc1 (centres undefined)	?	-29.1%
Cc1nn(C)c2c1c(-c1ccccc1)cc(=O)n2Cc1ccc(F)cc1	-43.6%	-9.7%
Cc1cn2c(=O)cc(COc3ccc(NC(=O)COc4ccccc4)cc3)nc2s1	-8.3%	-3.4%
COc1ccccc1NC(=O)Cn1c(=O)n(-c2cccc(C)c2)c(=O)c2c1c1cc(C)ccc1n2C	-14.7%	-18.5%
CC1CN(C(=O)N2CCC(C(=O)NCc3ccccc3F)CC2)c2cc(Cl)ccc2O1 (centres undefined)	-16.3%	-28.6%
O=C(NC1CCCC1)c1ccc(CSc2nc3ccncc3n2Cc2ccccc2F)cc1	-22.7%	-4.4%
CCC(C)NC(=O)c1nn(-c2ccc(C)cc2)c(=O)n(C)c1=O (centres undefined)	2.1%	-3.0%
CCc1ccc2c(c1)c(=O)c(S(=O)(=O)c1ccccc1)cn2CC(=O)Nc1ccc(OC)cc1	-3.2%	-17.3%
CCOC(=O)Cn1c(=O)n(-c2ccccc2OC)c2nc(-c3ccccc3)nc(C(N)=O)c21	-62.6%	-18.5%
Cc1ccc(NC(=O)[C@H](CSCc2ccccc2)N2Cc3ccccc3C2=O)cc1	-6.0%	-6.3%
Cc1ccc(NC(=O)CN2C(=O)COc3ccc(S(=O)(=O)NC4CCCC4)cc32)c(Cl)c1	-2.9%	-19.2%
N#Cc1cc2c(=O)n3ccccc3nc2n(-c2nnc(SCc3ccccc3Cl)s2)c1=O	?	-10.7%
COc1cccc(N2CC(NC(=O)c3ccco3)CC2=O)c1 (centres undefined)	12.1%	-17.5%
Cc1ccc2oc(C(=O)Nc3ccc(S(=O)(=O)Nc4onc(C)c4C)cc3)cc(=O)c2c1	-173.9%	-6.2%[11.5 µM]
Cc1ccc(-n2cc(-c3ccccc3)nc2S(=O)(=O)CC(=O)Nc2ccc(F)cc2)cc1	?	49.1%[activator]
CC1=C(C(=O)Nc2ccc(C)cc2C)C(c2ccc(O)cc2)n2nnnc2N1 (centres undefined)	5.0%	-12.4%
COc1ccc(/C=C/C(=O)Nc2sc3c(c2C(N)=O)CCC(C)C3)cc1OC (centres undefined)	10.1%	-0.3%
CC(=O)/C=C/C=C1/C2CCC(C2)C1(C)C (centres undefined)	.	5.5%
CC(=O)Nc1ccc(S(=O)(=O)N2CCN(c3ccc(C)c(C)c3)CC2)cc1	-12.7%	-28.6%
CCCCN(CC)C(=O)c1nn(-c2ccc(OC)cc2)c(=O)c2c1c1ccccc1n2C	?	-9.9%
CCOC(=O)C1CCN(C(=O)Cn2ncc3c4ccccc4n(Cc4ccccc4)c3c2=O)CC1	-0.6%	?
Cc1cc(O)c(C(c2ccc(Cl)cc2)N2CCN(c3ccccc3)CC2)c(=O)n1Cc1ccco1 (centres undefined)	?	-7.1%
COc1cccc(CNC(=O)CCc2c(C)nc3c4c(C)cc(C)nc4nn3c2C)c1	-13.5%	-7.8%
Cc1ccc(-c2nc3c4ccccc4n(CC(=O)N4CCN(c5ccccc5F)CC4)c(=O)n3n2)cc1	-5.0%	2.9%
Cc1cccc(N2CC(C)Cn3c2nc2c3c(=O)n(CC(=O)O)c(=O)n2C)c1 (centres undefined)	-8.1%	-4.8%

Complete entries, quoted from the list. Values in the order: PMP22 txn prim, HTT prom inh
CCOC(=O)C1CCN(C(=O)Cn2ncc3c4ccccc4n(Cc4ccccc4)c3c2=O)CC1 in the list: -0.6%, ?
Cc1cc(O)c(C(c2ccc(Cl)cc2)N2CCN(c3ccccc3)CC2)c(=O)n1Cc1ccco1 (centres undefined) in the list: ?, -7.1%
CCCCN(CC)C(=O)c1nn(-c2ccc(OC)cc2)c(=O)c2c1c1ccccc1n2C in the list: ?, -9.9%

Continued.
molecule	PMP22 txn prim	HTT prom inh
Cc1ccc(-n2c(SCCC(C)C)nc3sc4c(c3c2=O)CC(C)(C)OC4)cc1	-11.1%	-14.1%
C=Cc1ccc(Cn2c(C)c(CNCCc3ccc(OCC)cc3)c(C(=O)O)c2C)cc1	-21.3%	0.0%
COc1cc(NC(=O)CN2C(=O)C(c3ccc(C)cc3)=NC23CCCCCC3)cc(OC)c1	-14.6%	-26.9%
CCN1CCN(c2c(S(=O)(=O)c3ccc(C)c(C)c3)cnc3cc(OC)c(OC)cc23)CC1	?	-27.0%
COc1cc(Cl)c(C)cc1NC(=O)c1cc2c(s1)-c1c(C)cccc1OC2	?	-14.1%
Cc1ccc(CNC(=O)c2sc3nc(-c4ccccc4)cn3c2C)cc1	-2.4%	-27.5%
O=C(COc1ccc(Cl)cc1)Nc1ccc(-c2nc3cc(Cl)ccc3o2)c(O)c1	-10.1%	56.4%[activator]
COc1ccc2c(c1)c(=O)c(S(=O)(=O)c1ccc(C)c(C)c1)cn2CC(=O)Nc1ccccc1	10.1%	?
N#Cc1c(-c2ccccc2)cc(-c2ccccc2)nc1SCC(O)CS(=O)(=O)Cc1ccc(Cl)cc1 (centres undefined)	-2.5%	-35.8%
O=C(c1ccco1)n1nc(-c2ccccc2)nc1NCc1ccc(F)cc1	-15.9%	2.7%
COc1cc(OC)c(NC(=O)N2CC=C(c3c[nH]c4ccccc34)CC2)cc1Cl	?	-26.3%
CCOc1ccc(-c2nnc(SCC(=O)Nc3cccc(C#N)c3)o2)cc1	5.4%	?
COc1cc(OC)c(NC(=O)CN2C(=O)CCn3nc(-c4cccn4C)cc32)cc1Cl	-11.6%	0.0%
O=C(c1ccccc1)N1CCN(CCc2ccncc2)CC1	-5.5%	-18.0%
COc1ccc(Cl)cc1NC(=O)CN1Cc2ccccc2C1=O	-0.5%	-24.2%
CCCCCC(=O)Nc1ccc(NC(=O)c2cc3ccccc3o2)c(OC)c1	?	-13.4%
COc1ccc(-c2cc(C(F)(F)F)nc(SCC(=O)NCCc3ccccc3)n2)cc1OC	?	-22.5%
COc1cccc(C(=O)c2cn(CC(=O)Nc3cccc(C(F)(F)F)c3)c3nc(C)ccc3c2=O)c1	7.1%	-24.5%
COc1cc(N2C(=O)CSC23C(=O)N(Cc2cccc(F)c2)c2ccccc23)cc(OC)c1OC (centres undefined)	-20.2%	-31.7%
CCc1ccc(CNC(=O)c2cc3cc(S(=O)(=O)N4CCCCC4)ccc3n2C)cc1	-23.8%	?
Cc1nc2ccn(Cc3cccnc3)c(=O)c2cc1C(=O)Nc1ccc(OC(F)(F)F)cc1	3.4%	-18.9%
